# Source: PubChem (National Center for Advancing Translational Sciences (NCATS))
# SW480 rereplic: DNA re-replication induction in SW480 cells; SW480 DNA re-replication, Hoechst DNA content imaging, 48 h; 340,000 tested, 1.8% active; Potency, µM (doses to about 46.1 µM), without a hit: at the top dose re-replication activation, hits mostly activators; also: % of control where 0% means no effect; nearly all actives have a fitted effect of over 55% in size
#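 Cells (250 per well) received 23 nL compound or DMSO by pin tool and were kept 48 hr at 37 C, 5% CO2. Nuclei were then stained with Hoechst for 40 min and scanned for DNA content.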
# TDP43 rescue: TDP-43 toxicity inhibition in yeast. 410,000 tested, 1.8% active. TDP-43 expressing yeast growth rescue, BacTiter-Glo, 24 h. Potency, µM (titrated, usually from 46.1 µM), for inactives: top-dose growth rescue (activation), actives largely listed as activators; also: % of control where 0% means no effect; nearly all actives have a fitted effect of over 50% in size
#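 Galactose-induced TDP-43 yeast, OD600=0.02, compound pinned; 24 hr, 30 deg C; BacTiter-Glo luminescence for growth. Inhibitors of TDP-43 toxicity read as activators.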
# GLP1R inv ag: GLP-1 receptor (human) inverse agonism | AID 624417 | 410,000 tested, 1.6% active | P43220 | HEK293 GLP-1R CRE-luciferase, luminescence, 24 h; GLP-1R form is constitutively active | Potency, µM (series often up to 38.3 µM), without a hit: at the highest dose activity change, negative = inhibition, usual class: inhibitors; also: % is scaled to controls: 0 for no effect and ±100 for the full control effect; nearly all actives have a fitted effect of over 55% in size
# Target sequence (P43220 whole entry, looked up): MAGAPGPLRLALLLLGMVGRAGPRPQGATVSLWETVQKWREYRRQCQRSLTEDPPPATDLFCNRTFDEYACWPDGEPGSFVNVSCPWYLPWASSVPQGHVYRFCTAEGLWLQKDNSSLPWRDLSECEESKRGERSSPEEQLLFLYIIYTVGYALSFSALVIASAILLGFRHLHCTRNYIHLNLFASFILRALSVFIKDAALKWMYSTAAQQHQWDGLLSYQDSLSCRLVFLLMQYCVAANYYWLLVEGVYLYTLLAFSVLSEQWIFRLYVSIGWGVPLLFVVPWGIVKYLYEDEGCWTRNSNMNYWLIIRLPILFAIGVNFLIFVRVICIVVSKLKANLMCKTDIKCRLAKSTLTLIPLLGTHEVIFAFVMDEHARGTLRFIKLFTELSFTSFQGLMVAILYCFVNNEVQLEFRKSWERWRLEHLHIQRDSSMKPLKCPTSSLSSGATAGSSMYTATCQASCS
#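 HEK293 cells stably co-expressing constitutively active GLP-1R and a cAMP-responsive luciferase reporter were seeded in DMEM with 10% Nu serum, given compounds after 12 h, and incubated 24 h at 37 deg C. Luminescence was then read.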
# GLP1R cytotox: cytotoxic in the GLP-1 receptor inverse agonist counter-screen. HEK293 cAMP-luciferase reporter cells, luminescence, 24 h. AID 624418. 410,000 tested, 0.13% active. Potency, µM (doses to about 38.3 µM), inactives show top-dose activity change, negative = inhibition, most hits filed as inhibitors;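 also: loss of luciferase light is scored as toxicity; % is scaled to controls: 0 for no effect and ±100 for the full control effect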
#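 1536-well qHTS counterscreen of the MLSMR; 200 cells/uL, 12 h pre-incubation, 23 nL cpd, 24 h at 37 deg C 5% CO2, luciferase detection reagent, 12 min RT, luminescence. Inhibition = undesired.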
# GLP-1R agonist: GLP-1 receptor (human) agonism; P43220; HEK293 GLP-1R CRE-luciferase, luminescence, 4-6 h; cells express a hypersensitive GLP-1R form; Potency, µM (highest dose often 45.6 µM), inactives show at the highest dose activation, hits mostly activators; 380,000 tested, 0.007% active; also: % of control where 0% means no effect
# Starred values were filed as active, the others as inactive; ? = inconclusive; nt = not tested or not shown; & = joins results of further samples; [ ] = remark or other dose. Calls follow the shape of the dose curve; as a rule, active = well fitted curve in the direction sought with a large enough effect; inconclusive = small, poorly fitted or top-dose-only effect, or another doubt; inactive = no such curve, though single readings can be large; an effect the other way counts as inactive or inconclusive. Potency is read from the fitted curve at half-maximal effect. This is a subset; count on the stated rates, not on these rows.
entry	molecule	SW480 rereplic	TDP43 rescue	GLP1R inv ag
1	C#CCN(C)[C@H](C)Cc1ccccc1	?	20%	9%
2	C[C@]12CCC(=O)C[C@@H]1CC[C@@H]1[C@@H]2CC[C@]2(C)[C@@H](O)CC[C@@H]12	-33%&1%	19%	30%
3	COc1nc(C)nc(NC(=O)NS(=O)(=O)c2ccccc2Cl)n1	13%	0%	9%
4	CC(=O)Nc1nnc(S(N)(=O)=O)s1	?	0%	6%
5	O=[N+]([O-])c1ccc(Cl)cc1	-72%[inhibitor]	21%	9%
6	CCCCOC(=O)c1ccccc1C(=O)OCCCC	2%	13%	?
7	CCOC(=O)c1ccccc1N	-1%	6%	2%
8	C/C=C/CC#N	-19%	22%	-5%
9	CNC(C)[C@@H](O)c1ccccc1 (stereo partly drawn)	0%	nt	nt
10	C[N+]1(C)C2CC(OC(=O)C(CO)c3ccccc3)CC1C1OC12 (stereo not drawn)	2%	12%	26%

entry	GLP1R cytotox	GLP-1R agonist
1	6%	-1%
2	-1%	?
3	3%	-6%
4	1%	-5%&-2%
5	3%	4%
6	-17%	-1%
7	1%	-2%
8	-9%	-3%
9	nt	0%
10	5%	26%

# Remaining list, next part:
entry	molecule	SW480 rereplic	TDP43 rescue	GLP1R inv ag
11	C[C@]12CC[C@H]3[C@@H](CC=C4C[C@@H](O)CC[C@@]43C)[C@@H]1CC[C@@H]2O	-3%	nt	nt
12	Nc1ccc([N+](=O)[O-])cc1	?	23%	?
13	Cc1cccc(N=Nc2ccc(N(C)C)cc2)c1	2%	5%	?
14	O=S(=O)(c1ccc(O)cc1)c1ccc(O)cc1	2%	3%	2%
15	CC(C)(O)C1C2OC(=O)C1C1(O)CC3OC34C(=O)OC2C14C (stereo not drawn)	4%&1%	25%	9%
16	CC(C)OC(=O)Cc1ccccc1	?	9%	1%
17	O=[N+]([O-])c1c2ccccc2cc2ccccc12	-35%[inhibitor]	?	3%
18	Nc1ccc(Cc2ccc(N)c(Cl)c2)cc1Cl	9%	13µM*	?
19	Nc1ccc(-c2ccccc2)cc1	-10%	10%	6%
20	CNCC[C@H](Oc1ccc(C(F)(F)F)cc1)c1ccccc1	?	13%	?
21	Cc1cccnc1	-56%[inhibitor]	0%	8%
22	COC(=O)C(c1ccccc1)C1CCCCN1 (stereo not drawn)	-2%	nt	nt

entry	GLP1R cytotox	GLP-1R agonist
11	nt	17%
12	-27%	0%
13	?	4%
14	15%	3%
15	-5%	2%&0%
16	-3%	7%
17	0%	?
18	-4%	3%
19	-10%	2%
20	-30%	-4%
21	1%	0%
22	nt	0%

# Part of the list above, showing only GLP1R cytotox and SW480 rereplic.
no.	SMILES	GLP1R cytotox	SW480 rereplic
22	COC(=O)C(c1ccccc1)C1CCCCN1 (stereo not drawn)	nt	-2%
15	CC(C)(O)C1C2OC(=O)C1C1(O)CC3OC34C(=O)OC2C14C (stereo not drawn)	-5%	4%&1%

# Among those listed so far, 4 have a halogen:
entry	molecule	SW480 rereplic	TDP43 rescue	GLP1R inv ag
3	COc1nc(C)nc(NC(=O)NS(=O)(=O)c2ccccc2Cl)n1	13%	0%	9%
5	O=[N+]([O-])c1ccc(Cl)cc1	-72%[inhibitor]	21%	9%
18	Nc1ccc(Cc2ccc(N)c(Cl)c2)cc1Cl	9%	13µM*	?
20	CNCC[C@H](Oc1ccc(C(F)(F)F)cc1)c1ccccc1	?	13%	?

entry	GLP1R cytotox	GLP-1R agonist
3	3%	-6%
5	3%	4%
18	-4%	3%
20	-30%	-4%

# Given field by field: part of the list above
[8] C/C=C/CC#N
  SW480 rereplic: -19%; TDP43 rescue: 22%; GLP1R inv ag: -5%; GLP1R cytotox: -9%; GLP-1R agonist: -3%

[9] CNC(C)[C@@H](O)c1ccccc1 (stereo partly drawn)
  SW480 rereplic: 0%; TDP43 rescue: nt; GLP1R inv ag: nt; GLP1R cytotox: nt; GLP-1R agonist: 0%

[10] C[N+]1(C)C2CC(OC(=O)C(CO)c3ccccc3)CC1C1OC12 (stereo not drawn)
  SW480 rereplic: 2%; TDP43 rescue: 12%; GLP1R inv ag: 26%; GLP1R cytotox: 5%; GLP-1R agonist: 26%

[11] C[C@]12CC[C@H]3[C@@H](CC=C4C[C@@H](O)CC[C@@]43C)[C@@H]1CC[C@@H]2O
  SW480 rereplic: -3%; TDP43 rescue: nt; GLP1R inv ag: nt; GLP1R cytotox: nt; GLP-1R agonist: 17%
